VACV mCherry inh: vaccinia inhibition (mCherry reporter). hit rate 0.63% among 310,000. Potency, µM (highest dose often 36.5 µM), inactives show top-dose activity change, negative = inhibition, actives largely listed as inhibitors. AID 720579. Vaccinia virus mCherry reporter infection, fluorescence; about a quarter of the inactives have no number; active = well fitted inhibition curve with a large enough effect; inconclusive = small, poorly fitted or top-dose-only effect; inactive = no such curve, though single readings can be large or run the other way; tested in A549 cells; further: nearly all actives have a fitted effect of over 35% in size; inactives centre near -10
VACV Venus inh: vaccinia inhibition (Venus reporter); Vaccinia virus Venus reporter expression, fluorescence; Potency, µM (top dose mostly 36.5 µM), without a hit: top-dose activity change, negative = inhibition, most hits filed as inhibitors; hit rate 0.46% among 330,000; active means well fitted inhibition curve with a large enough effect; inconclusive means small, poorly fitted or top-dose-only effect; inactive means no such curve, though single readings can be large or run the other way; tested in A549 cells; further: nearly all actives have a fitted effect of over 30% in size; inactives centre near -10
The depositor's hits bear a star; i = inactive; ? = inconclusive; · = not tested or not shown; & = joins results of further samples; [ ] = dose if it differs, or a comment. On the % scale 0 is the no-effect control and ±100 the full control effect; potency means the concentration at half of the fitted maximal effect. No enrichment for hits; any-hit rate near 0.87%.

Results follow in this order: VACV mCherry inh, VACV Venus inh
- CNCCCNC(=O)c1ccc(/C=N/O)nc1
  i, -8%
- CC(OC(=O)c1ccc(OCC2CCCO2)cc1)C(=O)N(C)Cc1ccccc1 (stereo unspecified)
  i, -13%
- CCCCCCCCN1[C@@H](CC(=O)OC)c2ccc(/C=C/C(=O)OC)cc2S1(=O)=O
  -4%, -19%
- COc1ccc(N2CCN(S(=O)(=O)CCNC(=O)C3CC(=O)N(c4ccccc4)C3)CC2)cc1 (stereo unspecified)
  -15%, -13%&-9%
- Cc1cc(NC(=O)CC(C)(C)C)nc2c1c(=O)oc1ccccc12
  -20%, -9%
- Cc1ccc(NC(=O)CN2CCN(CCN=CC3=C(O)CC(C)(C)CC3=O)CC2)cc1
  ·, -2%
- Cc1ccc(NC(=O)Cn2cc(C(=O)c3cccs3)c3ccccc32)cc1C
  -19%, -16%
- CCC(=O)Nc1nc(C)c(C(=O)N2CCCCC2)s1
  i, -11%
- O=C(c1ccc(OC2CCN(Cc3cccc(F)c3)CC2)cc1)N1CCCCC1
  -8%, -17%
- O=C(C1COc2ccccc2O1)N1CCN(c2nc3c(F)cccc3s2)CC1 (stereo unspecified)
  0%, -12%
- CC1(C)OC(=O)N(c2cccnc2)C1(C)O (stereo unspecified)
  ·, -3%
- Cc1ccc(NC(=O)CSc2ccc(-c3ccccn3)nn2)cc1F
  -17%, -13%
- Cc1nc(NCCc2ccccc2)sc1C(=O)N(C)C
  -12%, -2%
- C=CCn1cccc(C(=O)Nc2ccc(OC)c(Cl)c2)c1=O
  -13%, -10%
- Cc1onc(-c2c(Cl)cccc2Cl)c1C(=O)N=C(N)N1CC(C)OC(C)C1 (stereo unspecified)
  -7%, -13%
- CCOc1ccc2nc(N3CCCC(C(=O)NCCc4ccc(SC)cc4)C3)sc2c1 (stereo unspecified)
  -12%, -16%
- C=C(C)Cn1c(=O)c2c(nc3n2CCN3c2cc(C)cc(C)c2)n(C)c1=O
  -21%, -14%
- O=C(/C=C/Sc1ncn[nH]1)c1ccc(Cl)cc1
  3%, -4%
- CCOC(=O)c1c(NC(=O)/C=C/c2ccc(C)cc2)sc2c1CCCC2
  -4%, -3%
- CN(C)c1cc(-c2cccc([N+](=O)[O-])c2)oc(=O)c1Cl
  4%, 0%
- C=CCn1c(SCC(=O)NC(=O)Cc2ccccc2)nnc1-c1ccccc1F
  -8%, 0%
- CCc1ccc(C2CC(=O)c3c([nH]c(C(=O)OCc4ccc(C)cc4)c3C)C2)cc1 (stereo unspecified)
  -30%, ?
- OCC1OC(n2cnc3c(NO)ncnc32)C(O)C1O (stereo unspecified)
  39%[activator], 7%
- CC[C@@]1(C(=O)OC)N[C@H](CN(C)S(=O)(=O)c2ccc(F)cc2)[C@@H]2C(=O)N(C)C(=O)[C@@H]21
  i, 1%
- Cc1noc(C)c1C(=O)OC(C)C(=O)c1ccc(C(C)(C)C)cc1 (stereo unspecified)
  i, -10%
- COc1ccc(S(=O)(=O)N2CCOCC2)cc1C(=O)N1CCCC1
  -10%, -9%
- COc1ccc(NC(=O)COC(=O)CC2Sc3ccccc3NC2=O)cc1 (stereo unspecified)
  -16%, -6%
- CN(C)c1ccc(/C=C2\C(=N)N3N=C(CC(=O)N4CCCCC4)SC3=NC2=O)cc1
  i, 16%
- CCOC(=O)/C=C/C(=O)Nc1ccc(S(=O)(=O)N(C)c2ccccc2)cc1
  -5%, -4%
- O=C(N/C(=C/c1ccc(Br)cc1)C(=O)N1CCOCC1)c1cccs1
  i, -14%

An excerpt from above in order of SMILES length, ascending.
Results follow in this order: VACV mCherry inh, VACV Venus inh
- CNCCCNC(=O)c1ccc(/C=N/O)nc1
  i, -8%
- Cc1cc(NC(=O)CC(C)(C)C)nc2c1c(=O)oc1ccccc12
  -20%, -9%
- O=C(C1COc2ccccc2O1)N1CCN(c2nc3c(F)cccc3s2)CC1 (stereo unspecified)
  0%, -12%

Further entries follow:
Results follow in this order: VACV mCherry inh, VACV Venus inh
- CCC(=O)Nc1ccc2oc(-c3cccnc3)nc2c1
  i, 1%
- O=C(Nc1cccc2ccccc12)c1ccccc1NS(=O)(=O)c1cccc2cccnc12
  -8%, -3%
- COc1cc(C(=O)N2CCN(Cc3ccccc3C(F)(F)F)CC2)cc(OC)c1OC
  -11%, -4%
- CCCCN(C=O)c1c(CC)nc2ccc(C(=O)NCc3cccs3)cn12
  25%, -2%
- O=C(O)C1CCC(=O)N1Cc1ccccc1Cl (stereo unspecified)
  ·, ?
- CCOCCCNC(=O)c1ccc2c(=O)n(CCc3ccc(OC)c(OC)c3)c(=O)[nH]c2c1
  -7%, -7%
- C=CCNCC(O)COc1ccc(C(C)=O)cc1OC (stereo unspecified)
  i, 6%
- Cc1cc(C(=O)COC(=O)C2COc3ccccc3O2)c(C)n1CC1CCCO1 (stereo unspecified)
  -4%, -6%
- Cc1ccccc1NC(=O)c1c(C)[nH]c(=S)c(C#N)c1-c1ccc(Cl)cc1
  i[7.34 µM], -3%[7.34 µM]
- CC(=O)NC(CC(=O)O)C(=O)NC(CCC(=O)O)C(=O)O (stereo unspecified)
  i, -17%
- CCc1ccccc1NC(=O)CSc1nc2ccccc2n1CC(=O)N(C)C
  i, -6%
- O=C(CN1C(=O)C2CCCCN2c2ccc(C(=O)N3CCCC3)cc21)NCc1cccc(Cl)c1 (stereo unspecified)
  -7%, -5%
- CCCCCCCCN1C(=O)[C@H](CC(=O)N2CCSCC2)C[C@@]2(C(=O)OC)CC(C)(C)CC=C12
  -16%, ?
- CSc1ccccc1C(=O)OCC(=O)NCCN1C(=O)CSC1=O
  -14%, -11%
- CN(C)CCCN1C(=O)C(=O)/C(=C(/O)c2ccncc2)C1c1ccccc1 (stereo unspecified)
  ·, -16%
- Cc1ccc(NC(=O)c2ccc3ccccc3n2)cc1S(=O)(=O)N(C)C
  1%, 0%
- O=C(COC(=O)CCSc1ccc(Cl)cc1)NCc1ccccc1Cl
  -6%, -17%
- O=C(Nc1cccc(-c2nc3ncccc3o2)c1)c1ccc2c(c1)OCO2
  i, -10%
- CC1CCCN(c2nc3c(c(=O)[nH]c(=O)n3C)n2Cc2ccccc2Cl)C1 (stereo unspecified)
  -23%, ?
- CCOc1ccc(CN2CCNC(=O)C2CC(=O)NC2CCOCC2)cc1 (stereo unspecified)
  i, -11%
- C=CC1CN(C(=O)OCC(Cl)(Cl)Cl)C2CC3c4ccc(OC)cc4NC3C3CC1C2CO3 (stereo unspecified)
  -19%, -13%
- CCN(CC)C(=O)Cn1cc(S(=O)(=O)CC(=O)Nc2ccccc2F)c2ccccc21
  -15%, -15%
- Cc1ccc(S(=O)(=O)N2CCN(c3ccccc3)CC2)cc1C
  -15%, -9%
- Cc1onc(-c2c(F)cccc2Cl)c1C(=O)NCc1ccco1
  ·, -5%
- COc1ccc(S(=O)(=O)Nc2ccc(S(=O)(=O)N3CCCCC3)cc2)cc1
  -18%, -10%
- CCN1CC(CN(C)Cc2nc(Cc3ccccc3)no2)CC1=O (stereo unspecified)
  i, -4%
- Cc1nn(-c2ccccc2)c2c1C1(C(=O)Nc3ccccc31)N1C(=N2)Sc2ccccc21 (stereo unspecified)
  ·, ?
- CC(C)(C)C(=O)NC1=NCCS1
  ·, -24%
- COc1ccc(-n2c(C)cc(SC)c(C(C)=O)c2=S)cc1
  ·, 8%
- O=C1NC(=Nc2ccccc2)c2c1cccc2[N+](=O)[O-]
  0%, -10%
- O=C(CCCOc1ccc(Cl)cc1Cl)N/N=C\C1CCCCC1
  ?, ?
- Cc1ccc2c(c1)c(N=Nc1ccc([N+](=O)[O-])cc1)c(O)n2C
  -5%, -7%
- CC(C)c1ccc(NC(=O)Cn2cc(S(=O)(=O)Cc3cccc(Cl)c3)c3ccccc32)cc1
  -28%, -25%
- COc1ccc([C@H]2CC(=O)C=C(c3ccc4c(c3)sc3ccccc34)C2)cc1
  -14%, -20%
- Cc1ccc(CNC(=O)C2CCCN(c3nn4cc(-c5ccc(C)cc5)nc4s3)C2)cc1 (stereo unspecified)
  -9%, -10%
- O=C(NCCCN1CCCCC1)c1[nH]c2ccccc2c1Sc1ccc(Cl)cc1
  -12%, -20%
- COc1cccc(-c2ccc3c(N)c(C(=O)Nc4ccc(C)c(F)c4)sc3n2)c1
  -13%[7.34 µM], -11%[7.34 µM]
- COc1cccc(NC(=O)N2C3CCCC2CC(NC(=O)C2CC2)C3)c1 (stereo unspecified)
  -5%, 0%
- COc1ccc(S(=O)(=O)NC2CC3CCC2C3)cc1 (stereo unspecified)
  i, -20%
- CCC(=O)N1CCc2cc(S(=O)(=O)N(C)c3cccc(C)c3)ccc21
  i, -10%
- CSc1cccc(-n2c(C)cc(C(N)=O)c2C)c1
  -29%, -28%
- COc1ccc(-c2csc(N3N=C(C)C(C)C3=O)n2)cc1 (stereo unspecified)
  -10%, 1%
- N#CC(c1ccc(F)cc1)c1ccc(C(=O)c2ccc(F)cc2)cc1 (stereo unspecified)
  ·, ?
- CC(C)=CCOc1c2ccoc2c(OCC=C(C)C)c2oc(=O)ccc12
  11%, 4%
- O=C(COc1ccc(CNC[C@H]2O[C@@H](n3ccc(=O)[nH]c3=O)[C@H](O)[C@@H]2O)cc1)Nc1nccs1
  27%, 0%
- O=C(CCCn1c(=O)[nH]c2ccc(Br)cc2c1=O)N1CCN(c2cccc(Cl)c2)CC1
  ?, -25%
- CC(=O)OC1CC(OC2C(O)CC(OC3C(O)CC(OC4CCC5(C)C(CCC6C5CCC5(C)C(C7=CC(=O)OC7)CCC65O)C4)OC3C)OC2C)OC(C)C1OC1OC(CO)C(O)C(O)C1O (stereo unspecified)
  4.5µM*, 5.6µM*
- O=C(NCc1ccco1)C1CC(c2ccccc2O)=NO1 (stereo unspecified)
  -21%, -25%
- COc1ccccc1/C=N/NC(=O)CC(=O)NCCc1ccccc1
  -4%, -15%
- COc1ccc(Br)cc1CNC(=O)CCN1C(=O)COc2ccccc21
  -3%, -22%
- CC1(C)COC(Cc2ccccc2)=N1
  i, -7%
- CS(=O)(=O)N1CCCC(C(=O)N2CCc3ccccc3C2)C1 (stereo unspecified)
  i, -10%
- Cc1ccc(N(Cc2ccccc2)C(=O)c2ccc(F)c(S(=O)(=O)N3CCOCC3)c2)cc1
  -14%, -7%
- C=CCNc1nc2ccccc2nc1NS(=O)(=O)c1ccc(Br)cc1
  i, -10%
- On1ccccc1=S
  -1%, 5%
- CC1CCN(S(=O)(=O)c2ccc3c(c2)CCN3C(=O)Nc2ccc(Br)cc2)CC1
  -6%, -6%
- O=C(NC(NC(=O)c1ccccc1)C(=O)c1ccccc1)c1ccccc1
  ·, -19%
- CCOC(=O)c1ccccc1NC(=O)c1cn(-c2ccc(OC)cc2)c(=O)c2ccccc12
  -16%, -5%
- CC1(C)Cc2c(ccc3ccccc23)-c2nnc(-c3cccnc3)n21
  -3%, -21%
- CC(=O)Nc1ccc(NC(=O)C(C)OC(=O)c2ccccc2Sc2ccccc2C#N)cc1 (stereo unspecified)
  -14%, -14%

Look-ups from the list.
VACV mCherry inh with `COc1ccccc1/C=N/NC(=O)CC(=O)NCCc1ccccc1` stands at -4%
VACV Venus inh with `Cc1cc(NC(=O)CC(C)(C)C)nc2c1c(=O)oc1ccccc12` stands at -9%
VACV Venus inh with `CCOc1ccc(CN2CCNC(=O)C2CC(=O)NC2CCOCC2)cc1` (stereo unspecified) stands at -11%

Among those listed so far, 3 have a furan ring, fused or not.
Results follow in this order: VACV mCherry inh, VACV Venus inh
- Cc1onc(-c2c(F)cccc2Cl)c1C(=O)NCc1ccco1
  ·, -5%
- CC(C)=CCOc1c2ccoc2c(OCC=C(C)C)c2oc(=O)ccc12
  11%, 4%
- O=C(NCc1ccco1)C1CC(c2ccccc2O)=NO1 (stereo unspecified)
  -21%, -25%

Next compounds follow.
Results follow in this order: VACV mCherry inh, VACV Venus inh
- O=C(Cc1cccc(NC(=O)C2CCN(C(=O)C3CCCC3)CC2)c1)Nc1cccc(C(=O)N2CCOCC2)c1
  -6%, 1%
- COc1cccc(/C=C2\SC(=S)N(CCCC(=O)Nc3cccc(C(=O)O)c3)C2=O)c1
  i, 4%
- CC(C)Oc1ccc(CN2CCC2(C)C(=O)Nc2cccc(Oc3ccccc3)c2)cc1 (stereo unspecified)
  -3%, 1%
- CC(=O)Nc1ccc(Nc2nc3c(S(=O)(=O)c4cccc(Cl)c4)nnn3c3ccsc23)cc1
  0%, -13%
- O=S1(=O)CC/C(=N/Nc2ccc(C(F)(F)F)cn2)c2cc(F)ccc21
  i, -19%
- CCOC(=O)C1=Nc2ccccc2/C1=C\c1c(O)n(C)c(=O)n(C)c1=O
  i, -22%
- CC(=O)NCCc1nc2ccccc2n1CCOc1ccccc1
  -7%, -1%
- Nn1c(=S)[nH]c2sc3c(c2c1=O)CCCC3
  -5%, 1%
- COc1cc(NC(=O)CSc2nc3ccccc3cc2Cc2ccccc2)cc(OC)c1
  -27%, -17%
- COC(=O)[C@H](Cc1ccccc1)N(C)S(=O)(=O)c1cccc(S(=O)(=O)N(C)[C@@H](Cc2ccccc2)C(=O)OC)c1
  -8%, -17%
- Oc1ccc(/C=N/Nc2cc(N3CCCC3)nc(N3CCCC3)n2)cc1
  -25%, -20%
- COc1ccccc1C(=O)NC(=S)Nc1ccc(S(=O)(=O)N2CCN(C)CC2)cc1
  i, ?
- COc1ccc(OC)c(C(C(=O)NCc2ccco2)N(C(=O)Cn2nnc3ccccc32)C2CC2)c1 (stereo unspecified)
  -19%, -17%
- Cc1ccc(O)c(C(=O)c2cc(C#N)c(=O)n(C(C)c3ccccc3)c2)c1 (stereo unspecified)
  -18%, 10%

Screening results as filed in PubChem.
